# Cruzain inh noDet: qHTS Assay for Promiscuous and Specific Inhibitors of Cruzain (without detergent) | Cruzipain (Trypanosoma cruzi), P25779 | purified cruzain, Z-FR-AMC fluorescence, no detergent | Potency, µM, inactives show max response, negative = inhibition, most hits filed as inhibitors | 200,000 tested, 2.3% active | AID 1476, 2009;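 also: plate controls were enzyme without inhibitor for no effect and buffer without enzyme for full effect; nearly all actives have a fitted effect of over 40% in size; top concentration of the series not given in the record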
# Target sequence (P25779 123-467 limits assumed): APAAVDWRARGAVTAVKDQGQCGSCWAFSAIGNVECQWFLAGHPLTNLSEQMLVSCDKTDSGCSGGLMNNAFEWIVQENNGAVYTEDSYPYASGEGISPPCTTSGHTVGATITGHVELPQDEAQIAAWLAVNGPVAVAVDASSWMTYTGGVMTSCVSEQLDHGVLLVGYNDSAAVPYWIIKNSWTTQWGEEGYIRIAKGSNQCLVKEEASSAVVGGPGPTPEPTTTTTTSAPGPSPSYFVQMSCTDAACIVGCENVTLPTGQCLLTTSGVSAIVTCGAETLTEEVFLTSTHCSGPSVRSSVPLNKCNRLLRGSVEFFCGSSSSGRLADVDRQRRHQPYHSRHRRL
#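 Purified cruzain at 1.5 nM, pre-incubated 15 min with compound at room temperature in 100 mM sodium acetate pH 5.5, 5 mM DTT, 0.00005% Triton X-100. Reaction started with 2 uM Z-FR-AMC; AMC fluorescence increase over 60 s gives rate.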
# NS1 function inh: qHTS Assay for Inhibitors of Influenza NS1 Protein Function | S. cerevisiae slowed by influenza A NS1, growth recovery by OD600 | AID 2326, 2010 | Potency, µM (titrated, usually from 46.1 µM), for the others: top-dose activity, positive = more growth | 270,000 tested, 0.4% active; active means well fitted rising curve with a large enough effect; inconclusive means small, poorly fitted or top-dose-only effect; inactive means no such curve, though single readings can be large or run the other way; also: nearly all actives have a fitted effect of over 50% in size
#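 In this qHTS, NS1 from influenza A is expressed in budding yeast, where it slows growth. Cells are switched from glucose to 2% galactose medium (pH 6.0, -URA), treated with compound, and growth recovery is read at OD600.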
# 2A StopGo: High Throughput Screening for Foot and Mouth Disease Virus Antivirals; human cells with a luciferase reporter of 2A StopGo recoding; control for the full effect not named in the record; 410,000 tested, 1.2% active; AID 1159524, 2015; Potency, µM (titrated, usually from 57.9 µM), inactives show at the highest dose signal change, negative = less light; active = well fitted falling curve with a large enough effect; inconclusive = small, poorly fitted or top-dose-only effect; inactive = no such curve, though single readings can be large or run the other way; tested in HEK293T cells; also: % is scaled to controls: 0 for no effect and ±100 for the full control effect; nearly all actives have a fitted effect of over 45% in size; luciferase light after 4 h
# RE007 growth inh: qHTS Assay for Inhibitors of the HIV-1 protein Vpr. S. pombe RE007 Vpr strain, BacTiter-Glo ATP luminescence, 24 h; control for the full effect not named in the record. Potency, µM (highest dose often 92.2 µM), inactives show top-dose activity change, negative = less growth. 360,000 tested, 0.21% active. AID 651644, 2012; active = well fitted falling curve with a large enough effect; inconclusive = small, poorly fitted or top-dose-only effect; inactive = no such curve, though single readings can be large or run the other way;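 also: % is scaled to controls: 0 for no effect and ±100 for the full control effect; nearly all actives have a fitted effect of over 50% in size; the assay follows cell death caused by Vpr and the record does not say whether a fall means rescue or toxicity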
#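 Fission yeast RE007 carrying one integrated HIV-1 vpr copy, seeded at OD 0.01 in PMG+AL medium with 23 nL pinned compound. Grown 24 h at 30 degrees; viability read by BacTiter-Glo luminescence after 5 min.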
# Marburg entry inh: qHTS for inhibitors of binding or entry into cells for Marburg Virus; Marburg virus pseudotyped entry inhibition, cell reporter; control for the full effect not named in the record; about a third of the inactives were read at about 46 µM; Potency, µM (highest dose often 37.8 µM), without a hit: at the top dose activity change, negative = inhibition, most hits filed as inhibitors; 300,000 tested, 1.8% active; active = well fitted inhibition curve with a large enough effect; inconclusive = small, poorly fitted or top-dose-only effect, or effect the other way; inactive = flat fitted curve, though single readings scatter; tested in HEK293 cells; about a fifth of its hits are not listed in these tables; also: % is scaled to controls: 0 for no effect and ±100 for the full control effect; luciferase read-out
# SARS PLP yeast: qHTS of Yeast-based Assay for SARS-CoV PLP; S. cerevisiae expressing SARS-CoV PLpro, growth rescue; control for the full effect not named in the record; Potency, µM (series often up to 32.9 µM), for the others: at the highest dose activity, positive = growth rescue; 330,000 tested, 0.19% active; AID 485353, 2010; active means well fitted rising curve with a large enough effect; inconclusive means small, poorly fitted or top-dose-only effect; inactive means no such curve, though single readings can be large or run the other way; also: 0% is about no effect; nearly all actives have a fitted effect of over 55% in size; growth read by luminescence after 48 h
# Lassa entry inh: qHTS for Inhibitors of binding or entry into cells for Lassa Virus; Lassa virus pseudotype entry inhibition, cell reporter; control for the full effect not named in the record; Potency, µM (titrated, usually from 37.9 µM), for the others: top-dose activity change, negative = inhibition, actives largely listed as inhibitors; 300,000 tested, 1.2% active; AID 540256, 2011; active means well fitted inhibition curve with a large enough effect; inconclusive means small, poorly fitted or top-dose-only effect, or effect the other way; inactive means flat fitted curve, though single readings scatter; tested in HEK293 cells; also: % is scaled to controls: 0 for no effect and ±100 for the full control effect; nearly all actives have a fitted effect of over 50% in size; luciferase read-out
# Cruzain Triton: qHTS Assay for Promiscuous and Specific Inhibitors of Cruzain (with detergent). Cruzipain (Trypanosoma cruzi), P25779. purified cruzain, Z-FR-AMC fluorescence, 0.01% Triton. Potency, µM, without a hit: max response, negative = inhibition, hits mostly inhibitors. 200,000 tested, 0.43% active;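 also: plate controls were neutral wells for no effect and buffer without enzyme for full effect; nearly all actives have a fitted effect of over 40% in size; top concentration of the series not given in the record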
#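 Cysteine protease activity tested under reducing, mildly acidic conditions (100 mM sodium acetate pH 5.5, 5 mM DTT) plus 0.01% Triton X-100. Cruzain 1.5 nM; substrate Z-FR-AMC 2 uM; 15 min compound preincubation at room temperature.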
# * marks the source's active call; other numbers are inactive results; ? = inconclusive; nt = not tested or not shown; & = joins results of further samples; [ ] = dose if it differs, or a comment. Unless noted, calls follow the shape of the dose curve; as a rule, active = well fitted curve in the direction sought with a large enough effect; inconclusive = small, poorly fitted or top-dose-only effect, or another doubt; inactive = no such curve, though single readings can be large; an effect the other way counts as inactive or inconclusive. Potency is read from the fitted curve at half-maximal effect.
SMILES,Cruzain inh noDet,NS1 function inh,2A StopGo,RE007 growth inh,Marburg entry inh,SARS PLP yeast,Lassa entry inh,Cruzain Triton
Cc1ccc2[nH]cc(S(=O)(=O)c3ccc(C)c(C)c3)c(=O)c2c1,-7%,1%,-4%&11%,-3%,0%&4%[46.1 µM],1%,-15%,0.3%
CN(C)CCCN(C(=O)CCc1ccccc1)c1nc2c(F)cccc2s1,7%,17%,-4%,5%,?,-5%,?,-1.2%
O=C(O)COc1ccccc1/C=N/NC(=O)C(O)c1ccccc1 (stereo unspecified),nt,0%,1%,1%,-10%,0%,22%,nt
CCn1cc(C(=O)NCC(OC)OC)c(=O)c2cc(S(=O)(=O)N3CCC(C)CC3)ccc21,nt,-8%,-28%,6%,nt,-3%,nt,nt
Cc1cccc(NC(=O)c2cc(S(=O)(=O)N(C)c3ccc(F)cc3)ccc2Cl)n1,nt,nt,?,13%,-13%,nt,-15%,nt
Cc1ccc(C2Nc3ccccc3-n3c(-c4ccccc4)c4c(=O)n(C)c(=O)n(C)c4c32)cc1 (stereo unspecified),?,nt,?,nt,7%[46.1 µM],nt,-3%[46.1 µM],-11%
CCN1C(=O)C(CC(=O)Nc2ccc(F)cc2)N(Cc2cccs2)C1=S (stereo unspecified),nt,2%,19%,-7%,-6%[46.1 µM],0%,5%,nt
Cc1ccc(-c2noc(CCC(=O)NCCN3CCc4ccccc4C3)n2)cc1,10%,-5%,?,-2%,?,9%,13%,2.2%
COc1cccc(CNC(=O)COC(=O)CCCNC(=O)c2ccc(Cl)cc2)c1,nt,nt,12%,24%,?,0%,15%,nt
CN(C)C(=S)Nc1ccc(Cc2ccncc2)cc1,nt,-5%,-8%,6%,nt,-1%,nt,nt
Cc1cnc(CN(C)C(=O)CC2C(=O)NCCN2Cc2cccc(F)c2F)[nH]1 (stereo unspecified),nt,13%,-19%,5%,?,-1%,12%,nt
COC(=O)c1ccc(CSc2ccc3nnc(-c4cccnc4)n3n2)o1,-9%,4%,nt,nt,7%,7%,nt,1.1%
COc1ccc(C2C3C(=O)N(Cc4ccccc4)C(=O)C3ON2c2ccccc2)c(OC)c1OC (stereo unspecified),13%,24%,-1%,1%,?,-4%,5.6µM*,-0.8%
CC1CNC(=S)N(c2ccccc2)C1=O (stereo unspecified),nt,nt,-16%,2%,3%,nt,9%,nt
CCc1ccc(Nc2cc(C)nc3ncnn23)cc1,nt,-4%,-7%,7%,11%,0%,9%,nt
CC(NC(=O)Cc1ccsc1)c1ccc(F)cc1 (stereo unspecified),nt,-5%,12%,-2%,9%[46.1 µM],-3%,-14%,nt
O=S1(=O)[C@H]2C[C@@H]3C=C[C@@]2(CN1Cc1ccc(F)cc1)O3,nt,-13%,1%,4%,nt,1%,nt,nt
Cc1ccc(/C(N)=N/OC(=O)COc2ccc(Cl)c(C)c2)cc1,-19%,5%,-8%,5%,-14%,20%,20%,-2.3%
Cc1cccc(-n2c(=O)c3c4c(sc3n3c(C)nnc23)CCCC4)c1,2%,nt,0%,nt,nt,nt,-5%[46.1 µM],6.7%
N[C@@]1(C(=O)O)CC[C@@H](C(=O)O)C1,4%,3%,-12%,14%,12%&4%&4%,nt,?,1.7%
Cc1ccc2oc(C(=O)N3CCN(CCO)CC3)c(C)c2c1,nt,12%,9%,-2%,?,0%,10%,nt
COc1ccc(CNC(=O)CCC(=O)N2CC3CCCN3c3ccccc32)c(OC)c1 (stereo unspecified),-3%,nt,-12%,nt,nt,nt,5%[46.1 µM],-2.6%
CCC(CO)NCc1ccc(OCC(=O)Nc2cccc(C(F)(F)F)c2)c(OC)c1 (stereo unspecified),4%,-8%,0%,9%,?,23%,?,-3.1%
COc1cccc(C(=O)CN2CCN(S(=O)(=O)c3cccc([N+](=O)[O-])c3)CC2)c1,?,0%,-23%,12%,nt,-22%,nt,-3.2%
Cc1ccc(C)c(-c2nnc(NC(=O)Cc3ccccc3)o2)c1,nt,10%,-1%,12%,nt,1%,nt,nt
# More entries.
SMILES,Cruzain inh noDet,NS1 function inh,2A StopGo,RE007 growth inh,Marburg entry inh,SARS PLP yeast,Lassa entry inh,Cruzain Triton
O=C(CCSc1nccn1Cc1ccccc1)N1CCOCC1,-2%,-2%,55%[activator],-2%,8%,0%,3%,3.2%
COC(=O)C1NN=C(C(=O)c2ccccc2)C1c1ccccc1 (stereo unspecified),0%,7%,-1%,18%,2%,15%,2%,-1.7%
Cc1cc2cccc(C)c2nc1SCC(=O)N(C)c1nc(-c2ccccc2)cs1,?,10%,-19%,-22%,-5%,?,5%,1.9%
CCOC(=O)N1CCN(C(=O)c2ccc3c(=O)n(Cc4ccc(OC)cc4)c(=S)[nH]c3c2)CC1,?,-17%,?,2%,-7%,-19%,?,-6.4%
Cc1ccccc1NC(=O)N(CCc1nc2ccccc2[nH]1)Cc1ccccc1,18%,19%,0%,3%,?,-16%,?,-1.2%
CCN(CCn1cccn1)C(=O)CCc1nnc(-c2ccc3c(c2)OCO3)o1,nt,3%,49%[activator],-15%,?,1%,24%,nt
CN(Cc1nc2ccc(Cl)cc2[nH]1)Cc1nc(-c2cnccn2)no1,nt,-1%,-9%,1%,nt,0%,nt,nt
CCOc1ccc(NC(=O)CCNS(=O)(=O)c2ccc3c(c2)CC(C)N3C(C)=O)cc1 (stereo unspecified),nt,-3%,7%,17%,nt,1%,nt,nt
Cc1noc(C)c1S(=O)(=O)N(CC(=O)Nc1ccc2c(c1)OCCO2)c1ccc(C(C)C)cc1,0%,-115%,?,-3%,0%,0%,nt,-4.0%
CC(C)OCCCNc1sc(S(=O)(=O)c2ccccc2)nc1S(=O)(=O)c1ccc(Cl)cc1,-17%,nt,8%,nt,-23%[46.1 µM],nt,-16%[46.1 µM],-3.5%
Cc1sc2ncnc(N3CCC(C(=O)Nc4cc(Cl)ccc4Cl)CC3)c2c1C,nt,nt,-20%,5%,1%,-12%,-8%,nt
O=C(Cc1ccc(Cl)cc1)Nc1ccc2nn(-c3ccccc3)nc2c1,23%,nt,7%,nt,nt,nt,17%[46.1 µM],-2.4%
Cc1sc(N)nc1-c1ccc(Oc2ccccc2)cc1,nt,-135%,53%[activator],?,nt,-21%,nt,nt
O=c1oc2ccccc2c(NCc2cccc(F)c2)c1[N+](=O)[O-],-18%,2%,-8%,7%,1%,23%,20%[14.3 µM],-7.3%
CCCC(=O)Nc1ccc(C(=O)NNC(=O)c2cccs2)cc1,-2%,2%,17%,0%,23%,0%,26%,0.6%
Cc1cc(C)n(C(=O)c2ccc(C)c(S(=O)(=O)N3CCOCC3)c2)n1,9%,-9%,8%,1%,0%,11%,-7%,-1.1%
O=C(O)CN1C(=O)COc2ccc(S(=O)(=O)N3CCCCCC3)cc21,nt,1%,-15%,-2%,nt,17%,nt,nt
O=C(Nc1ccccc1C(=O)N1CCOCC1)c1cccnc1,-5%,9%,nt,1%,-19%,-4%,?,2.1%
CCOC(=O)c1c(C)[nH]c(C(=O)COC(=O)c2ccc(O)cc2)c1C,nt,0%,4%,-9%,5%[46.1 µM],0%,?,nt
Cc1nc(C)c(C(=O)Nc2ccccc2)s1,-8%,-7%,12%,-16%,23%[46.1 µM],5%,15%,11%
CCOC(=O)c1ccc(NC(=O)Cc2ccc(-n3c(CC)nc4cccnc43)cc2)cc1,?,nt,-16%,nt,nt,nt,2%[46.1 µM],-7.8%
Cc1ccccc1-n1nc2c(c1NC(=O)CC(C)C)CS(=O)C2 (stereo unspecified),nt,4%,4%,6%,nt,2%,nt,nt
O=c1cc(CN2CCOCC2)c2ccc(O)c(O)c2o1,nt,0%,-10%,-1%,nt,0%,nt,nt
CC(CCc1ccccc1)NC(=O)COC(=O)c1ccc(F)cc1 (stereo unspecified),nt,-5%,0%,-4%,7%[46.1 µM],-4%,2%[46.1 µM],nt
O=C(O)C1CCCN1c1nc(C(F)(F)F)nc2ccccc12 (stereo unspecified),nt,4%,3%,6%,-7%[46.1 µM],4%,-25%[46.1 µM],nt
# (listing goes on)
SMILES,Cruzain inh noDet,NS1 function inh,2A StopGo,RE007 growth inh,Marburg entry inh,SARS PLP yeast,Lassa entry inh,Cruzain Triton
CNC(=S)N/N=C/c1ccc(-c2cccc(C(=O)O)c2)o1,nt,-4%,14%,?,?,-5%,?,nt
CCc1cc(C(=O)N2CCN(c3ncc(C(F)(F)F)cc3Cl)CC2)sc1C,nt,-45%,41%[activator],3%,-7%[46.1 µM],-8%,-13%[46.1 µM],nt
O=C(NCC(c1cccs1)N1CCOCC1)c1cccnc1 (stereo unspecified),nt,-3%,-22%,-1%,nt,0%,nt,nt
Cc1ccc(-n2nnnc2SCC(=O)Nc2ccccc2-c2ccccc2)cc1C,?,10%,?,32%,?,-4%,-26%,1.9%
c1cn2c(Nc3ccc4c(c3)OCCO4)c(-c3ccc(N4CCOCC4)cc3)nc2cn1,nt,5%,31%[activator],-3%,nt,-2%,nt,nt
Cc1ccc2occ(CC(=O)Nc3c(C(=O)Nc4ccc(Cl)cc4)oc4ccccc34)c2c1,10µM*,nt,30%,nt,1%[46.1 µM],nt,-2%[46.1 µM],-2.4%
O=C(Nc1ccc(F)cc1)NC1CCN(Cc2c(F)cccc2Cl)CC1,nt,2%,-32%,2%,-1%[46.1 µM],0%,nt,nt
COc1cccc(/C=N/NC(=O)CCc2ccccc2)c1,9%,-7%,nt,4%,-15%,-4%,?,1.8%
Cc1ccc(N(Cc2ccc(C(=O)Nc3ccccc3C(=O)NCc3ccco3)cc2)S(C)(=O)=O)cc1C,?,6%,1%,-2%,?,1%,-7%,-0.5%
Cc1nnc(SCc2cc(=O)[nH]c(/N=C(\N)Nc3ccccc3)n2)s1,nt,-3%,-5%,6%,?,0%,?,nt
